Assay outcomes from PubChem BioAssay.
NPYLR7 ag: agonists of mosquito NPYLR7 receptor, primary screen, cell-based, Aedes aegypti, calcium fluorescence, mosquito biting behavior. HEK293T NPYLR7/Galpha15, GCaMP6s calcium fluorescence. activation, % at 10 µM. 270,000 compounds, 0.15% hits; in the data active = activation above about 40%;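 also: 0% = vehicle and 100% = reference agonist at the receptor; some compounds past the cut are filed as inactive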
NPYLR7 ag max-min: recorded beside NPYLR7 ag, whose call it bears; activation, %; measured here: Max-Min RFU normalised activation; some inactives read as strong as hits;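 span of the calcium signal over five minutes; 0% = vehicle and 100% = native peptide agonist; compound fluorescence can raise it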
Active calls of the source: *; & = joins results of further samples.

Preview, 2 compounds:
SMILES	NPYLR7 ag	NPYLR7 ag max-min
COc1ccc(-n2c(SCC(=O)N3CCN(C(=O)c4cccc(Br)c4)C(C)C3)nnc2-c2ccco2)cc1 (centres undefined)	8	6
Oc1ccccc1N1CCN(Cc2cc(Cl)cc3c2OCOC3)CC1	0	-3

The list itself, from the start:
SMILES	NPYLR7 ag	NPYLR7 ag max-min
COc1ccc(-n2c(SCC(=O)N3CCN(C(=O)c4cccc(Br)c4)C(C)C3)nnc2-c2ccco2)cc1 (centres undefined)	8	6
Oc1ccccc1N1CCN(Cc2cc(Cl)cc3c2OCOC3)CC1	0	-3
CC(=O)c1cccc(NC(=O)CCCCC2C3NC(=O)NC3CS2(=O)=O)c1 (centres undefined)	8	13
CCCN(C(C)c1nc2ccccc2c(=O)n1-c1ccc(CC)cc1)S(=O)(=O)c1ccc(Br)cc1 (centres undefined)	-8	-3
CCS(=O)(=O)N1CCCc2cc(NC(=O)c3c(F)cccc3Cl)ccc21	-2	6
Cc1n[nH]c(C)c1S(=O)(=O)N1CCCc2cccc(F)c21	4	4
COc1ccc(S(=O)(=O)Nc2ccc(N(C)C)nc2)cc1	4	9
Cc1ccc(-c2nnc(SCC(=O)C(C)(C)C)n2C)cc1	2	6
O=c1c2cccnc2[nH]c(=S)n1CC1CCCO1 (centres undefined)	5	3
COc1ccc(NC(=O)Nc2ccc(N3CCCCC3)cc2)cc1	3	3
CCOC(=O)c1c(-c2ccccc2)csc1NC(=S)NC(=O)CCl	-5	-11
CNC(C#N)Cc1ccc(OC)c(OC)c1 (centres undefined)	3	5
COc1ccc(CC(=O)Nc2cc(-c3cccs3)nn2-c2nc(C)cc(=O)[nH]2)cc1OC	4	1
CC(C)NC(=O)[C@@H](C)N1Cc2ccc(N3CCOCC3)nc2C1=O	10	4
CN1CC2([N+](=O)[O-])C=C(Oc3ccc(F)cc3)CC([N+](=O)[O-])(C1)C2 (centres undefined)	-2	-6
COc1cccc(NC(=O)CN2CN(c3ccccc3)C3(CCN(C(=O)c4cccc(C(F)(F)F)c4)CC3)C2=O)c1	19	21
CNC(=O)C(C)S(=O)(=O)Cc1cccc(Cl)c1 (centres undefined)	2	2
CCc1ccc2c(CSc3nnc(-c4cccnc4)o3)cc(=O)oc2c1	8	3
COc1ccc2nc(C(=O)N3CCCCC3)cc(Nc3cccc(F)c3)c2c1	1	-2
Cc1occc1-c1nnc(SCC(=O)N(C)Cc2ccsc2)n1C	0	-4
Cc1sc2nc(CCN)nc(NCCCc3ccncc3)c2c1C	-2	-4
Cc1onc(C(=O)NCc2cccnc2Oc2ccccc2F)c1CO	3	-5
COc1cccc(N=C2NN=C(c3ccc4c(c3)CC(=O)N4)CS2)c1	-1	4
CC(C)n1cc(C(=O)N2CCC(c3[nH]ncc3-c3cccc(F)c3)CC2)cn1	3	0
CCC1C(c2ccc(C)cc2)CCN1c1ccc(S(C)(=O)=O)cc1S(C)(=O)=O (centres undefined)	-2	-2
Clc1ccccc1-c1nc(N2CCOCC2)nc2ccc(Br)cc12	11	10
O=C(C1CCN(c2nccc(C(F)(F)F)n2)CC1)N1CC(=O)N2CCc3c(F)cccc3C2C1 (centres undefined)	2	17
CCOC(=O)[C@H]1[C@@H](O)C(=O)N(C(C)C)C12CCN(C(=O)c1ccc(NC(C)=O)cc1)CC2	3	14
O=C(CSc1nnc(NCC2CCCO2)s1)Nc1cccc(F)c1 (centres undefined)	-2	-2
COc1cc2c(C(=O)O)c(C)n(-c3ccc(C)cc3C)c2c2ccccc12	-5	-15
ClC1(Cl)CC1Cn1cnc2ccccc21 (centres undefined)	0	5
O=C1C(=O)N(CCCN2CCOCC2)C(c2ccc(Cl)c(Cl)c2)C1=C(O)c1ccccc1 (centres undefined)	11	15
CCOC(=O)N1CCC(N(C)Cc2nc3ccc(C)cc3[nH]2)CC1	1	2
CCOc1ccc(C(=O)Nc2ccc3oc(-c4ccccc4Br)nc3c2)cc1[N+](=O)[O-]	10	10
CCN(CC)C(=S)N=P(c1ccccc1)(N1CCOCC1)N1CCOCC1	-5	-5
CC(C(=O)NCc1ccc(CN2CCOCC2)cc1)N1CCCC1c1ccsc1 (centres undefined)	5	4
CN(C)C1CCCN(C(=O)Nc2ccc(F)cc2F)CC1 (centres undefined)	5	5
Cc1ccc(Oc2cc(C)nc(SCc3ccccc3C#N)n2)cc1	2	7
O=C(Cn1cnc2cc(F)ccc2c1=O)N(C1CCCC1)C1CCS(=O)(=O)C1 (centres undefined)	3	1
CC(C)CCNC(=O)c1cc2c(s1)CSC2	4	4
O=C(NCc1ccccn1)c1coc(CN(CCc2c[nH]c3ccccc23)Cc2ccc3c(c2)OCO3)n1	1	12
O=C(O)c1cc2cc(F)ccc2[nH]1	0&-8	-4&-14
CCOc1cccc2c1OC[C@@H]1CN(CC(C)(C)O)C(=O)CCN(C(=O)OCC(C)C)[C@H]21	-3	0
Nn1c(O)c(C2=c3cc([N+](=O)[O-])ccc3=NC2=O)sc1=S	1	-6
Cn1ccnc1-c1nccn1CC1CCN(Cc2ccccc2)CC1	1	-3
Cc1nc(SCC(=O)NC2CCCC2)c(C#N)c(C)c1C	-2	24
CCc1ccc(-c2nccn2Cc2ccc(S(N)(=O)=O)cc2)o1	3	-2
CCC(C)(C)c1ccc(S(=O)(=O)N2CCN(c3nc4nccc(-c5cc(Cl)ccc5Cl)n4n3)CC2)cc1	6	0
CCC1CN(C(=O)c2ccccc2NC(=O)c2ccc(C)o2)CCN1 (centres undefined)	3	-3
Cc1cc(SC2CCCCC2)ccc1NC(=O)Cn1ccc(=O)n(C)c1=O	-6	510
NC1CC(=O)N(Cc2ccccc2Cl)C1 (centres undefined)	9	4
C=C(C)CN(CC)Cc1nc(-c2ccc(C(F)(F)F)cc2)oc1C	-7	-13
Cc1noc(C)c1CN1CCC(C)CC1	-6	-7
CCc1ccc(S(=O)(=O)NCCCn2nc(-c3ccc(C)cc3)ccc2=O)s1	1	-1
CCCCCCn1c(SCC(N)=O)nc2ccccc2c1=O	-1	-8
CC1CN(C(=O)CN2C(=O)NC3(CCCCCCC3)C2=O)CC(C)O1 (centres undefined)	1	-2
O=C1C2C3C=CC(C3)C2C(=O)N1c1cc(C(F)(F)F)ccc1Cl (centres undefined)	5	-12
Cc1c(C)n2c3c(=O)n(CC(C)C)c(=O)n(C)c3nc2n1CCO	3	4
CN(CC(=O)Nc1sc2c(c1C(N)=O)CCCC2)S(=O)(=O)c1ccc(Cl)s1	3	3
COc1oc(=O)c2cc(N)ccc2c1Cl	-2	-5
(continued)
SMILES	NPYLR7 ag	NPYLR7 ag max-min
Cc1cccc(Oc2cc(N3CCOCC3)ncn2)c1	-8	5
O=C(CN1CSCC1=O)Nc1cc(Cl)ccc1Sc1ccc(F)cc1	0	0
Cc1nnc(-c2cccc(-c3c(C)cccc3C)c2)o1	3	-1
N#CCCn1nc(-c2ccccc2)c2c1Nc1ccccc1NC2c1ccccn1 (centres undefined)	4	11
CCOC(=NCc1ccco1)NC(=O)c1ccc(OC)cc1	-4	-2
Cc1cc(C)c2sc(NNC(=O)c3ccc(S(=O)(=O)N4CCc5ccccc5C4)cc3)nc2c1	5	0
CCS(=O)(=O)Oc1cc(CN(CC(C)C)C(=O)c2cccc(OC)c2)ccc1OC	-13	-3
C=C1c2ccccc2NC(=O)N1Cc1ccc(C(F)(F)F)cc1	5	1
CCCCn1nc(C)c2c1NC(=O)CC2C1CCNCC1 (centres undefined)	0	-1
COc1cc(C2NC(=O)N(C)C(C)=C2C(=O)OCC(C)C)cc(Br)c1O (centres undefined)	-4	-14
CC(=O)c1c(C)[nH]c(C(=O)OCC(=O)c2c(N)n(CC(C)C)c(=O)n(C)c2=O)c1C	3	2
Cc1nc(C2CN(CCn3nc4ccccn4c3=O)CCO2)n[nH]1 (centres undefined)	5	2
CCCc1cc(-n2ccnc2)n2ncc(-c3ccccc3)c2n1	3	3
Cc1ccc(C)c(/C=C2\SC(N)=NC2=O)c1	1	-6
O=C1C(=Cc2ccc3c(c2)OCO3)CCCC1=Cc1ccc2c(c1)OCO2	-4	-12
CCOC(=O)C1CCN(c2c3c(nc4ncnn24)CCCC3)CC1	-4	-6
COc1cc(OC)cc(-n2c(C)cc3c(cnc4ncnn43)c2=O)c1	3	7
CCN(CC)c1nc2c(S(=O)(=O)c3ccc(C)cc3)nnn2c2ccsc12	4	6
COc1ccc(F)c(-c2nc(CN3CCN(c4ncccn4)CC3)c(C)o2)c1	18	3
CCc1nc2c(OCc3ccc(OC)cc3)cccn2c1N(C)C(=O)C(C)C	0	4

7 of the compounds above, with values under each structure:
Values run as follows: NPYLR7 ag	NPYLR7 ag max-min
- CC(=O)c1c(C)[nH]c(C(=O)OCC(=O)c2c(N)n(CC(C)C)c(=O)n(C)c2=O)c1C
  3	2
- Cc1nc(C2CN(CCn3nc4ccccn4c3=O)CCO2)n[nH]1 (centres undefined)
  5	2
- CCCc1cc(-n2ccnc2)n2ncc(-c3ccccc3)c2n1
  3	3
- Cc1ccc(C)c(/C=C2\SC(N)=NC2=O)c1
  1	-6
- O=C1C(=Cc2ccc3c(c2)OCO3)CCCC1=Cc1ccc2c(c1)OCO2
  -4	-12
- CCOC(=O)C1CCN(c2c3c(nc4ncnn24)CCCC3)CC1
  -4	-6
- COc1cc(OC)cc(-n2c(C)cc3c(cnc4ncnn43)c2=O)c1
  3	7

Some of the entries above, reformatted.
canonical_smiles,NPYLR7 ag,NPYLR7 ag max-min
C=C1c2ccccc2NC(=O)N1Cc1ccc(C(F)(F)F)cc1,5,1
N#CCCn1nc(-c2ccccc2)c2c1Nc1ccccc1NC2c1ccccn1 (centres undefined),4,11
Cc1nnc(-c2cccc(-c3c(C)cccc3C)c2)o1,3,-1

Next section
SMILES	NPYLR7 ag	NPYLR7 ag max-min
CNCC1CC(c2ccccc2C)=NO1 (centres undefined)	4	0
Cc1ccc(-n2c(C(C)N(CCC(C)C)C(=O)NC3CCCCC3)nc3ccccc3c2=O)c(C)c1 (centres undefined)	20	19
CC(C)(C)OC(=O)NC1(c2noc(C3Cc4cc(Cl)ccc4O3)n2)CCC1 (centres undefined)	3	1
Fc1ccccc1N1CCN(C2CCCN(Cc3ccoc3)C2)CC1 (centres undefined)	1	1
Clc1nc2c(Cl)cccc2s1	-24	-25
Clc1ccc(C2CSc3c4ncnc-4ncn32)cc1 (centres undefined)	4	2
CN(Cc1ccccc1)C(=O)c1ccc(Nc2nc(C(N)Cc3ccccc3)cs2)nc1 (centres undefined)	-4	-9
Cc1cccc(N2CCN(Cc3nc(C(c4ccccc4)c4ccccc4)no3)CC2)n1	12&1	3&-1
CN(Cc1cnn(C)c1)c1cc(C(=O)OC2CCCCC2)ccn1	1	-1
Cc1ccc(S(=O)(=O)NC(=O)C2(C)CCN2C(=O)CC2CCCC2)cc1 (centres undefined)	-2	-12
Cc1ccc(NC(=O)CC(C(=O)O)N2CCNCC2)c(C)c1 (centres undefined)	5	2
CCCC1(CCC)NC(=O)N(CC(=O)NC(C)c2ccc(-n3ccnc3)cc2)C1=O (centres undefined)	5	10
CNC(=O)C1CCCN(c2ccc3cc(Br)ccc3n2)C1 (centres undefined)	1	28
CCc1ccc(S(=O)(=O)N2CCN(Cc3nnnn3-c3ccccc3)CC2)s1	1	-2
COc1ccccc1C(=O)N1CCN(c2ccccc2Cl)C(=O)C1C (centres undefined)	-10	-6
CC(=O)NN=C(C1CC1)C1CC1	5	4
O=C(Nc1cccc(Cl)c1)c1cccnc1Nc1cccc(C(F)(F)F)c1	-15	-19
O=C(NCCC1=CCCCC1)C1CSCN1C(=O)c1ccccc1 (centres undefined)	-4	14
COCc1noc(-c2ccc(NC(C)Cc3ccsc3)nc2)n1 (centres undefined)	5	-3
O=C(CN1CCN(c2ccccc2[N+](=O)[O-])CC1)Nc1ccnn1Cc1ccccc1Cl	0	25

Part of the list above, with two lines to a compound.
Order of results – NPYLR7 ag, NPYLR7 ag max-min
Fc1ccccc1N1CCN(C2CCCN(Cc3ccoc3)C2)CC1 (centres undefined)
    1, 1
Cc1cccc(N2CCN(Cc3nc(C(c4ccccc4)c4ccccc4)no3)CC2)n1
    12&1, 3&-1
Clc1ccc(C2CSc3c4ncnc-4ncn32)cc1 (centres undefined)
    4, 2

More records follow:
SMILES	NPYLR7 ag	NPYLR7 ag max-min
CNc1cc(C(=O)N(Cc2noc(C)n2)C(C)C)ccn1	3	1
O=C(CN1CCN(S(=O)(=O)c2cc(F)ccc2F)CC1)NC1CCCCC1	6	5
COc1cc(Nc2ccc(NS(=O)(=O)c3ccccc3)cc2)nc(C)n1	2	0
CC(C)C(CCO)Nc1ccnc2cc(Br)ccc12 (centres undefined)	2	2
COc1ccc(NC2CCCN(c3nc(C(F)(F)F)nc(C)c3C)C2)cc1 (centres undefined)	7	5
COc1ccc(C=Nn2c(C)nc3ccccc3c2=O)cc1OC	-5	-9
CCCCCc1nn2c(=O)cc(O)nc2s1	-2	-2
CCN(CC(=O)NC1CCS(=O)(=O)C1)S(=O)(=O)c1cccs1 (centres undefined)	-5	-7
CN1CCN(C(=O)c2cc3ccccc3nc2Cl)CC1	2	-2
Cc1ccc(NC(=O)CSc2nc(=O)n(CCCN3CCOCC3)c3c2CCC3)cc1F	1	-2
CC(C)Cc1cc(C(=O)N2CCCC2c2ccccn2)no1 (centres undefined)	5	2
Cc1ccc(Nc2cc(C)c(O)c(C)c2)cc1	-11	-17
O=C(NCCc1csc2nc(-c3ccc(F)cc3)nn12)c1ccccc1	4	2
COC(=O)[C@H]1C[C@@H](O)CCN1C(=O)c1ccc(-n2cccn2)cc1	0	-3
COC(C#N)c1cccc(Cl)c1 (centres undefined)	22	11
C=CCN(CC(=O)N1N=C(c2ccc(F)cc2)CC1c1ccccc1OC)C1CCCC1 (centres undefined)	16	15
CC(=O)c1cccc(NCN2C(=O)c3ccc(Br)cc3C2=O)c1	-6	-8
CN(C)C(=O)c1ccc(Nc2cc3c(cn2)nc(-c2ccco2)n3C)cc1	6	3
COc1c(F)cc(-c2cccc3ccnn23)cc1F	9	4
CCc1ccc(-c2nccn2CCc2ccco2)nc1	2	1
CCc1cccc(C)c1NP1(=O)C=C(c2ccccc2)SC(c2ccccc2)=C1	2	6
CC(C(=O)N1CCN(C)CC1)N1C(=O)CSC1c1ccc(F)cc1 (centres undefined)	12	22

The list is partial (hit frequency here may not be typical).
